Mtb bLac sens = beta-lactam sensitization of Mtb H37Rv | M. tuberculosis H37Rv growth with meropenem, percent inhibition; hits of this screen are not shown here | inhibition, % at 25 µM | hit rate 0.27% among 330,000;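 active = about 74% or more and at least 40 points above the plate without the antibiotic, then above 30% in a dose series; inconclusive = first-round hits that could not be retested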;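 also: growth measured after seven days incubation then overnight dye step; 0% = bacteria only wells and 100% = bacteria with antibiotic; twin plates without the antibiotic show which effects depend on it; some results filed as inactive read as strong as hits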
Mtb growth = M. tuberculosis H37Rv growth inhibitors, H37Rv strain (AID 1626) | M. tuberculosis H37Rv growth inhibition; higher % means a stronger effect | one-dose inhibition, % at 10 µM; IC50 in µM for titrated hits | hit rate 0.95% among 220,000;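 active = confirmed in a dose series; inconclusive = inhibition above 80% but not taken into the dose series; inactive = below 80% or under 30% at every dose of the series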;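 also: bacteria incubated seven days before Alamar blue readout; 0% = bacteria only wells and 100% = bacteria with antibiotic wells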
Arbovirus anti = blocks arbovirus infection; inhibition, % at 10 µM; arbovirus infection cell-based antiviral screen; hit rate 0.37% among 200,000;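 active = inhibition from about 30%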;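 also: bluetongue infection of BSR cells; cell survival read as ATP light after 72 h; 0% = infected wells without compound and 100% = uninfected wells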
RecA intein inh = Mtb RecA intein splicing inhibition. inhibition, %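 (about 9 µM by stock and volumes)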. cell-free RecA intein splicing, fluorescence. P9WHJ3. AID 2221. hit rate 0.75% among 290,000; in the data active = inhibition above about 30%; inconclusive = no clear call, values can overlap the other calls;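 also: 0% = vehicle wells and 100% = reference inhibitor control wells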
Target sequence (P9WHJ3 whole entry, looked up): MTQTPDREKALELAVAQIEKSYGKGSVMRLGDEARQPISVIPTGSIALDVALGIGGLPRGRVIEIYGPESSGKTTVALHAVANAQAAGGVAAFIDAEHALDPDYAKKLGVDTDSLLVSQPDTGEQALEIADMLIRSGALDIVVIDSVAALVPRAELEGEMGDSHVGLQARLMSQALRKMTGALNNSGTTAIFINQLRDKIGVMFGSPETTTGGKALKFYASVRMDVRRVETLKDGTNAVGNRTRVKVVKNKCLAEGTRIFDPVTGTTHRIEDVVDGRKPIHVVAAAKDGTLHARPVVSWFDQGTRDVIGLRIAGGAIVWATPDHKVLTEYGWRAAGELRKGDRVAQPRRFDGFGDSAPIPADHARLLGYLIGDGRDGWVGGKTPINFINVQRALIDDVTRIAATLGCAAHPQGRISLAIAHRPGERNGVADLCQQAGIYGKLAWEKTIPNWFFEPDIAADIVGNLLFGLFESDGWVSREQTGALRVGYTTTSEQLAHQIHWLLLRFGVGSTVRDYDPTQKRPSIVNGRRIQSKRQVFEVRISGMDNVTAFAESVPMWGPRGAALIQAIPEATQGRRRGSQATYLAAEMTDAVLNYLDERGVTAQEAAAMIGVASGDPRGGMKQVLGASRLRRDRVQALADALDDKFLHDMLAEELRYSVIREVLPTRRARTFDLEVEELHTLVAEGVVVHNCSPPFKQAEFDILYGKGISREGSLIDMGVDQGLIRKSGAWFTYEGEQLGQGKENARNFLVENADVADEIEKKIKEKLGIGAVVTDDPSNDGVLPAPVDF
YopH inh = YopH (Yersinia) phosphatase inhibition. fluorescence Ex485/Em525. inhibition, %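 (about 10 µM by stock and volumes)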. hit rate 0.16% among 140,000. AID 898;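 active = inhibition of 50% or more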;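 also: controls were vehicle for no effect and minimum signal wells for full effect; inactives centre near -20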
Arbovirus anti repeat = further read-out of Arbovirus anti, marked with its call; inhibition, %; measured here: 10K subset replicate screen; many hits read low in the repeat;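 first of two repeat runs on a subset; 0% = infected and 100% = uninfected wells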
Active calls of the source: *; ? = inconclusive; . = no result given. This is a subset, so the mix of outcomes need not match the whole.

SMILES	Mtb bLac sens	Mtb growth	Arbovirus anti	RecA intein inh	YopH inh	others
COc1ccccc1N=CC=C1OC(C)(C)C(C)(C)O1	-8.1	-2.4%	-2.4	-8.1	.
Cc1ccc(N2CC(C(=O)Nc3nnc(SCC(N)=O)s3)CC2=O)cc1 (centres undefined)	-0.4	.	.	-0.7	.
CC(CCc1ccccc1)NC(=O)C(=O)NCCc1ccccc1 (centres undefined)	1.2	5.7%	-2.5	1.2	15.0
C=CCn1c(SCC(=O)Nc2ccccc2C)nnc1-c1ccncc1	0.1	-9.3%	-3.0	-0.8	-18.0
O=C(Cc1ccc([N+](=O)[O-])cc1)NCc1ccncc1	3.6	3.7%	4.7	-2.3	.
Cn1c(Cc2ccccc2)nnc1SCC(=O)Nc1ccccc1N1CCOCC1	-2.7	-2.9%	-0.5	2.7	-21.0
O=C(Nc1ccc(F)cc1F)N1CCCC(c2nc(-c3ccc(F)cc3)no2)C1 (centres undefined)	13.0	6.3%	4.0	1.7	.
CCCC(=O)NC(Oc1ccc(Cl)cc1Cl)C(Cl)(Cl)Cl (centres undefined)	-2.4	-3.6%	0.2	3.8	-36.9
Cn1cccc1CC(=O)NNC(=S)NC(=O)c1ccccc1Br	-2.4	2.5%	10.5	2.5	.
O=C(Nc1ccc(N2CCOCC2)c(Cl)c1)c1cc2ccccc2o1	91.9	8.2%	-7.5	2.2	-32.7
Cc1ccc2cccc(SCC(=O)N3CCOCC3)c2n1	-2.8	-2.0%	-12.5	-4.6	-171.7	Arbovirus anti repeat=-6.5
CC(=C\c1ccccc1)/C=C1/SC(=S)N(CCC(=O)O)C1=O	-2.1	.	.	8.2	.

Structural class: the compounds so far containing a halogen.
SMILES	Mtb bLac sens	Mtb growth	Arbovirus anti	RecA intein inh	YopH inh	others
O=C(Nc1ccc(F)cc1F)N1CCCC(c2nc(-c3ccc(F)cc3)no2)C1 (centres undefined)	13.0	6.3%	4.0	1.7	.
CCCC(=O)NC(Oc1ccc(Cl)cc1Cl)C(Cl)(Cl)Cl (centres undefined)	-2.4	-3.6%	0.2	3.8	-36.9
Cn1cccc1CC(=O)NNC(=S)NC(=O)c1ccccc1Br	-2.4	2.5%	10.5	2.5	.
O=C(Nc1ccc(N2CCOCC2)c(Cl)c1)c1cc2ccccc2o1	91.9	8.2%	-7.5	2.2	-32.7

Additional compounds:
SMILES	Mtb bLac sens	Mtb growth	Arbovirus anti	RecA intein inh	YopH inh	others
CCOC(=O)COn1c(=O)c(-c2ccc(F)cc2)[n+]([O-])c2ccccc21	2.7	.	.	-1.5	.
CC1(c2ccccc2)NC(=O)N(CCN2C(=O)c3ccccc3C2=O)C1=O (centres undefined)	-2.2	-6.4%	6.3	-1.1	-33.9
CN(C)S(=O)(=O)c1cccc(NC(=S)N/N=C/C(=O)c2ccccc2)c1	54.3	79.6%	-33.6	0.0	-34.5
OCCN(Cc1ccccc1)CC(O)COc1ccc(-c2ccccc2)cc1 (centres undefined)	71.6	38.5%	-31.0	.	.
COc1ccc(-c2ncccc2OC(=O)C23CC4CC(CC(C4)C2)C3)cc1	?	16.7%	17.0	6.9	-13.6
OC1(Cc2cc(-c3ccccc3)no2)CCN(CCCc2ccccc2)CC1	80.0	.	.	-0.1	.
CCCc1cc(=O)[nH]c(SCC(=O)Nc2cc(C)on2)n1	-3.8	-3.6%	19.2	5.5	.
COc1ccc(CN(C(=O)COc2ccc(C)c(C)c2)C2CCS(=O)(=O)C2)cc1OC (centres undefined)	-2.3	.	.	-2.9	.
O=C1COc2ccc(C(=O)COC(=O)/C=C/c3ccc(Br)o3)cc2N1	-5.6	.	.	-0.7	.
Cc1cccc(Nc2nc(OCC#N)nc(N(C)C)n2)c1	-2.2	.	.	-2.1	.
O=C1CSC(c2ccc(F)cc2)N1c1ccccc1F (centres undefined)	-3.7	.	.	-1.1	.
CCN(CC)CCNC(=S)N1CCn2c(nc3ccccc32)C1	-8.2	4.5%	2.1	5.9	-15.2
Nc1nc2ccccc2n1C(=O)c1ccco1	.	3.0%	-0.9	-2.4	-11.4
Cc1cc(=O)n2nc(N3CCC(C(=O)NCc4cccnc4)CC3)sc2n1	-5.5	.	-0.7	0.1	-32.8
CC(C)(C)C(=O)Nc1ccccc1C(=O)Nc1cc(Cl)ccc1Cl	4.2	-4.9%	17.0	-0.8	-9.4
NC(=O)NC(=O)COC(=O)c1cccc(S(=O)(=O)N2CCCCCC2)c1	-10.2	2.2%	.	0.0	.
CCOC(=O)c1c(NC(=O)CCc2ccc(CC)o2)sc(C)c1C	-17.1	-6.8%	3.3	19.8	14.2
CN(CC(=O)NCC1CCCCC1)S(=O)(=O)c1ccc(F)cc1	2.6	.	.	-1.0	.
COc1ccccc1N1CCN(C(=O)C2CCN(C(=O)c3ccc(C(C)(C)C)cc3)CC2)CC1	-3.1	.	.	-2.0	.
COc1cccc(CNC(=O)CCCc2cn(C)c3ccccc23)c1	4.2	.	.	2.4	.
CCOc1ccccc1OCC(=O)Nc1nnc(COC)s1	-1.3	-6.0%	-1.0	.	-40.9
COc1c(Br)cc(/C=N/n2c(-c3ccccc3)n[nH]c2=S)c(O)c1Br	2.2	.	.	-3.7	.
CSCCC(NC(=O)COc1cccc2ccccc12)C(=O)O (centres undefined)	1.6	0.7%	.	-2.9	.
C/C(=N/NC(=O)c1cc(O)c(O)c(O)c1)c1ccc([N+](=O)[O-])cc1	.	-8.4%	6.5	-5.6	.

Structures listed so far with an NH in an aromatic ring, in the order listed:
SMILES	Mtb bLac sens	Mtb growth	Arbovirus anti	RecA intein inh	YopH inh	others
CCCc1cc(=O)[nH]c(SCC(=O)Nc2cc(C)on2)n1	-3.8	-3.6%	19.2	5.5	.
COc1c(Br)cc(/C=N/n2c(-c3ccccc3)n[nH]c2=S)c(O)c1Br	2.2	.	.	-3.7	.

(more compounds)
SMILES	Mtb bLac sens	Mtb growth	Arbovirus anti	RecA intein inh	YopH inh	others
O=c1[nH]c(=O)n(C2CCCCC2)c(O)c1/C=C/C=Nc1ccccc1	1.1	-4.7%	.	-1.8	.
O=C(C(c1ccccc1)N1CCOCC1)N1CCOCC1 (centres undefined)	-11.1	1.6%	1.8	1.5	-4.6
Cn1c(CN(O)S(=O)(=O)c2ccc(Cl)cc2)nnc1C(F)(F)F	-9.1	.	.	-0.2	.
COc1ccc2c(c1)-c1nc(NC(=O)c3ccco3)sc1CC2	61.7	7.9%	-3.0	7.0	11.4
COC(=O)c1ccc(NC(=O)Nc2ccc(F)cc2F)cc1	4.6	1.8%	0.2	2.0	.
COc1ccc(CNc2ncnc3cc(OC)c(OC)cc23)cc1OC	2.8	-6.2%	1.3	-2.9	.
CCOCCCNC(=O)c1ccccc1SCC	-2.2	-0.5%	-7.6	-5.7	-18.9
CN1CCN(CCCNC(=O)c2ccc3c(Cl)c4c(nc3c2)CCCC4)CC1	-1.1	.	.	0.8	.
O=C(Cn1cnc2ccccc2c1=O)N1CCN(c2ccccc2)CC1	0.5	-7.2%	-3.0	-2.7	-1.2
O=c1c(Cc2ccc(F)cc2)c(O)ccn1Cc1ccco1	3.6	-2.4%	5.6	-1.2	.
CC(=O)c1c(N2CCCCC2)nc(=O)n(-c2ccccc2)c1C	-5.9	-2.9%	7.0	0.0	-32.9
COC(=O)c1cc(NS(=O)(=O)c2ccc(NC(C)=O)cc2)ccc1Cl	-5.8	1.4%	.	2.8	.
Cc1ccc(C(C)C)c(OCc2ccc(C(=O)N/N=C/c3ccc(O)cc3O)cc2)c1	-0.3	0.6%	-37.0	-2.3	-14.4
O=C(OCC(=O)N1CCOCC1)c1ccccc1SCC(=O)N1CCCC1	5.2	-8.5%	3.6	-3.6	-20.6
O=C(C1=C[C@H](c2ccc(C(F)(F)F)cc2)C[C@H](OCc2ccc(CO)cc2)O1)N1CCOCC1	-10.7	-2.1%	-1.6	0.7	.
CCOC(=O)c1sc(-c2ccccn2)nc1C	-6.0	-7.5%	17.4	-2.8	.
CCC(CO)Nc1ncnc2c1cnn2-c1ccc(Cl)cc1 (centres undefined)	4.2	6.7%	-14.8	0.8	-42.7
CCn1cnc2c1c(=O)[nH]c(=O)n2Cc1ccccc1	2.4	.	.	1.9	.
CN(C)c1ccc(-c2nnc(-c3ccc(S(=O)(=O)C(F)F)cc3)o2)cc1	1.5	1.6%	-3.6	-20.4	-41.8
Cc1onc(C(=O)NCCc2ccccc2)c1[N+](=O)[O-]	2.9	.	.	0.6	.
COc1ccc(C)cc1N(CC(=O)NCCSCc1ccco1)S(=O)(=O)c1ccc(C)cc1	1.7	.	.	3.6	.
CCCCNC(=O)CSc1nc2ccccc2c(=O)n1C1CCCC1	1.5	5.3%	-6.2	-2.1	-52.1
CCCCCCOc1ccc(NC(=O)CC2C(=O)N(CC)C(=S)N2Cc2ccco2)cc1 (centres undefined)	8.3	24.9%	-30.0	6.1	-6.8
Cc1cccc(N2CCN(C(=O)c3ccc4c(c3)OCCO4)CC2)c1C	10.6	12.6%	0.9	1.5	.
O=C(NN=C1CCCCC1)c1ccccc1-n1cccc1	-11.2	.	.	-1.7	.
CC1=C(C)C(C)=C(C#N)C(=C(C#N)C#N)N1	-8.4	-5.1%	.	-27.4	.
COc1cc(/C=N/NC(=O)C(=O)/C=C2\NC(C)(C)Cc3ccccc32)ccc1O	8.1	-4.5%	.	-61.3	.
Cc1cnc(NC(=O)Nc2ccc(Cl)cc2)s1	2.2	4.6%	6.2	0.3	.
O=C1NC(=O)/C(=C/c2cccc3ccccc23)S1	3.9	.	.	5.6	.
N#CCCN(C(=O)COC(=O)CCc1c[nH]c2ccccc12)c1ccccc1	95.1	.	.	-1.2	.
COc1ccc(CCN2C(=O)CSC2=S)cc1OC	72.1	.	.	0.4	.
Cc1cccnc1Nc1ncnc(N)c1[N+](=O)[O-]	-0.4	-2.7%	0.8	-1.5	.
CCCCN(C)CCNC(=O)c1nn(-c2ccc(OC)cc2)c(=O)c2c1c1ccccc1n2C	56.1	4.7%	-6.7	-0.3	.
O=S(=O)(c1ccccc1)N1CCN(C(=S)Nc2ccccc2Cl)CC1	0.2	.	.	1.9	.
CCOc1ccc(N/C(=N/c2nc(C)cc(C)n2)NC(=O)CC)cc1	69.5	?	.	1.0	.
CSc1nnc(-c2cccs2)n1C	-1.1	-5.6%	10.1	2.4	.
CSc1nsc(SCC(=O)Nc2nc3ccc(C)cc3s2)n1	8.8	10.3%	1.2	-0.9	-8.1
O=C(CN1C(=O)/C(=C/c2ccc(F)cc2)SC1=S)NC1C=CS(=O)(=O)C1 (centres undefined)	3.7	.	.	-0.2	.
Cc1cccc(N(C)C(=O)C2CCCN2S(=O)(=O)c2cccc3nsnc23)c1 (centres undefined)	0.2	0.5%	.	0.9	.
OCCNc1ncnc2c1c(-c1ccccc1)c(-c1ccccc1)n2Cc1ccco1	4.5	4.2%	-16.1	24.5	-16.2
COc1ccccc1N1CCN(CCCCN2C(=O)C3CCCCN3C2=O)CC1 (centres undefined)	2.5	.	.	-4.9	.
Cc1nn(C(=O)Cn2cc([N+](=O)[O-])cn2)c(C)c1Cl	2.9	-14.9%	1.8	-1.1	.
CCC(C)n1c(SCC(=O)NCCc2ccc(S(N)(=O)=O)cc2)nc2ccsc2c1=O (centres undefined)	-11.6	-5.5%	4.7	-3.1	-19.2
Cc1ccc(NC(=O)C2OCCc3ccccc32)cc1C (centres undefined)	-4.8	4.3%	0.2	-12.3	.
N#Cc1ccc(Sc2nc3ccccc3[nH]2)cc1C#N	-2.9	0.9%	6.8	8.4	-35.5	Arbovirus anti repeat=-2.0
Cc1cc(-n2c(SCC(=O)Nc3ccc(F)c(F)c3)nc3n[nH]c(C)c3c2=N)ccc1Cl	3.0	.	.	-2.4	.
O=C(O)c1cn[nH]c1-c1cccc([N+](=O)[O-])c1	-0.3	1.6%	1.2	-1.6	.
COc1ccc(/C=c2\sc3nc(=O)c(C)nn3c2=O)c(OC)c1	-2.2	-4.2%	9.8	3.3	.
CNC(=O)NC(=O)C(C)OC(=O)c1ccc(Cl)c(S(=O)(=O)Nc2ccc(F)cc2)c1 (centres undefined)	-5.6	-0.9%	.	1.2	.
Clc1ccc(Cc2nnc(-c3ccccc3Br)o2)cc1	0.2	4.1%	1.3	9.2	-25.2	Arbovirus anti repeat=0.1
CCOC(=O)N1CCC(N2Cc3cccc(C(=O)NCc4ccc(C)cc4)c3C2=O)CC1	0.8	8.1%	-5.8	-3.1	-53.6
CC1CCCC(NC(=O)CNCc2ccccc2F)C1C (centres undefined)	3.3	6.2%	1.4	-1.3	.
CCOc1cccc(NC(=O)CC#N)c1	-13.5	-7.4%	-6.4	-16.6	-20.9
Cc1cc2ccccc2n1CCNC(=O)c1ccc(Br)o1	6.2	8.9%	-0.7	-8.2	.
COc1ccc(CNC(=O)c2cc(C)nn2-c2ccccc2)cc1	4.9	4.2%	.	-0.8	.
C=CCC(CC=C)(NC(=O)c1ccccc1C)c1ccccc1	-4.8	-67.5%	-1.8	3.4	-5.7

Source: PubChem BioAssay (several laboratories)
